A647 fluor – qHTS Assay for Spectroscopic Profiling in A647 Spectral Region. Compound fluorescence, A647 channel (570/671 nm), Tris buffer. max dye-equivalent concentration, M. 59,000 tested, under 10 active. AID 592, 2007; active means above 1 µM dye equivalent; inconclusive means 0.1 to 1 µM; inactive means 0.1 µM or less;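 further: values scaled relative to a standard on each plate; highest value over a series up to 38 µM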
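Each compound's intrinsic fluorescence at 570 nm excitation and 671 nm emission is measured across its concentration series in 100 mM Tris, pH 8.0, after 15 min at room temperature, and reported relative to an A647 curve.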
TSHR ag – qHTS Assay for Agonists of the Thyroid Stimulating Hormone Receptor; Thyrotropin receptor (Homo sapiens), P16473; Potency, µM (titrated, usually from 57.1 µM), for the others: top-dose activation, actives largely listed as activators; 73,000 tested, 0.48% active; HEK293-CNG-TSHR cells (CNG channel as cAMP sensor), membrane potential dye, cAMP; active = well fitted activation curve of enough size with the parental cells flat; inconclusive = any curve in the parental cells; inactive = parental cells flat and receptor cells flat or falling; further: potency means the concentration at half of the fitted maximal effect; % of control where 0% means no effect; weak receptor curves with flat parental cells got no call and are not listed
Target sequence (P16473 whole entry, looked up): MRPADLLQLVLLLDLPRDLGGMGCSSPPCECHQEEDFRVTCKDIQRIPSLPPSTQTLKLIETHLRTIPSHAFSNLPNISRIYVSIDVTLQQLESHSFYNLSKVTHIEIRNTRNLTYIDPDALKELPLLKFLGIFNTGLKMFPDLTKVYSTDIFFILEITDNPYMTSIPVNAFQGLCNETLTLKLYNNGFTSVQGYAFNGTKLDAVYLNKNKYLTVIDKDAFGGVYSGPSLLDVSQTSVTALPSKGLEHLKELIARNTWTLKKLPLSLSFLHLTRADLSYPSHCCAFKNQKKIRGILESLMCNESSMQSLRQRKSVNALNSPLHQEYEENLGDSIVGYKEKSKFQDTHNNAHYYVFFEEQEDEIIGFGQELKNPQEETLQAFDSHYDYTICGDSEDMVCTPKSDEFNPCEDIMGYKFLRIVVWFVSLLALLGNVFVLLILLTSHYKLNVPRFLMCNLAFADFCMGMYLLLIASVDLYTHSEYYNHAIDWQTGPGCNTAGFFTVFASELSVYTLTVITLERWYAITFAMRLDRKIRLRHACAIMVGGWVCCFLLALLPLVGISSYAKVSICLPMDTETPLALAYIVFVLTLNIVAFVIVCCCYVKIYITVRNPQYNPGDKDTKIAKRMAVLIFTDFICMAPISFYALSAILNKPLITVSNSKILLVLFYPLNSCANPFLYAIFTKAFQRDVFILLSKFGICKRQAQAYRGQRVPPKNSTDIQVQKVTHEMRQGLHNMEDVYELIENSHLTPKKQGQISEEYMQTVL
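HEK 293 cells stably expressing TSHR and a cAMP-gated CNG channel; parental CNG-only cells as counterscreen. Cells preloaded 60 min with membrane potential dye plus 100 uM RO 20-1724, then compound 30 min; fluorescence read at 590 nm.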
A488 fluor – qHTS Assay for Spectroscopic Profiling in A488 Spectral Region; compound autofluorescence, A488 spectral region, dye equivalency; stronger effect = higher value; max dye equivalency, M; 59,000 tested, 0.1% active; active = above 10 nM dye equivalent; inconclusive = 1 to 10 nM; inactive = 1 nM or less; about half of its hits are not listed in these tables;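 further: highest value over a series up to 38 µM; compound alone in buffer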
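Compounds pin-transferred into 100 mM Tris buffer, pH 8.0, incubated 15 min at room temperature, then imaged with 480 nm excitation/540 nm emission filters. Fluorescence converted to Alexa 488 dye-equivalent concentration via an on-plate six-point A488 standard curve.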
Resorufin fluor – qHTS Assay for Spectroscopic Profiling in Resorufin Spectral Region. Compound fluorescence, resorufin region 547/598 nm, buffer; stronger effect = higher value. max dye-equivalent concentration, M. 59,000 tested, 0.04% active. AID 588, 2007; active = above 10 nM dye equivalent; inconclusive = 1 to 10 nM; inactive = 1 nM or less; a few of its hits are not listed in these tables; further: highest value over a series up to 38 µM
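Intrinsic fluorescence profiled in the resorufin window (ex 547 nm, em 598 nm) after 15 min at room temperature in pH 8.0 Tris buffer (100 mM); responses normalized against a six-point resorufin standard series as dye-equivalent concentration.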
AID923 – qHTS Assay for Allosteric/Competitive Inhibitors of Caspase-1: Spectroscopic Profiling in AFC Spectral Region; AID 923, 2007; Potency, µM (titrated, usually from 57.5 µM), inactives show at the highest dose fluorescence increase, most hits filed as activators; compound fluorescence, AFC spectral region (405/520 nm); almost no hit is shown here; 75,000 tested, 1.1% active; active means well fitted activation curve with a large enough effect; inconclusive means small, poorly fitted or top-dose-only effect;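 further: potency means the concentration at half of the fitted maximal effect; 0% is about no effect; scaled to a free AFC standard on each plate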
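Titrations up to 57 uM read every 20 sec for 3 min (405/520 nm) with 50 nM caspase 1 and 5 uM Ac-WEHD-AFC, pH 7.5 HEPES buffer. Fluorescence-vs-time intercept gave baseline, scaled against on-plate AFC standard.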
* hit, by the source's call; i = inactive; ? = inconclusive; / = no result given; & = joins results of further samples; [ ] = remark or other dose.

Start of the listing, in advance:
Every second line gives: A647 fluor, TSHR ag, A488 fluor, Resorufin fluor, AID923
Cc1nnc(SCC(=O)N2c3ccccc3CC2C)s1 (stereo not drawn)
    1e-09, -1%, i, i, 0.1%
Cc1nnc(SCC(=O)Nc2ccc3c(c2)OCCO3)s1
    3.1e-09, 6%, i, i, -0.2%
Cc1ccc2cc(CCNC(=O)c3ccco3)c(=O)[nH]c2c1
    1.2e-09, 0%, i, i, 0.1%
Cc1cc(N2CCOCC2)nc2ccc(NC(=O)C3CCC(C)CC3)cc12 (stereo not drawn)
    6.2e-09, 7%, i, i, 0.6%

Results, from the start:
Every second line gives: A647 fluor, TSHR ag, A488 fluor, Resorufin fluor, AID923
Cc1nnc(SCC(=O)N2c3ccccc3CC2C)s1 (stereo not drawn)
    1e-09, -1%, i, i, 0.1%
Cc1nnc(SCC(=O)Nc2ccc3c(c2)OCCO3)s1
    3.1e-09, 6%, i, i, -0.2%
Cc1ccc2cc(CCNC(=O)c3ccco3)c(=O)[nH]c2c1
    1.2e-09, 0%, i, i, 0.1%
Cc1cc(N2CCOCC2)nc2ccc(NC(=O)C3CCC(C)CC3)cc12 (stereo not drawn)
    6.2e-09, 7%, i, i, 0.6%
O=S(=O)(Nc1cccc(-c2cn3ccsc3n2)c1)c1ccc(F)cc1
    2.5e-08, 9%, i, i, 0.4%
O=C(NCC12CC3CC(CC(C3)C1)C2)c1nc2ncccn2n1
    1e-09, -2%[11.4 µM], i, i, 1.2%
CCOC(=O)N1CCN(C(=O)CS(=O)Cc2nc(-c3ccc(C)cc3)oc2C)CC1 (stereo not drawn)
    /, -2%, /, /, 2.0%
O=S(=O)(c1ccc(Oc2ccc(-c3nnco3)cc2)nc1)N1CCC(Cc2ccccc2)CC1
    1.6e-08, 9%, i, i, 0.3%
CC(C)CN(CC(C)C)S(=O)(=O)N1CCC(C(=O)NC2CCCCCCC2)CC1
    1e-09, ?, i, i, 0.8%
COCCn1nnnc1C(c1cccs1)N1CCN(c2cc(C)ccc2C)CC1 (stereo not drawn)
    1e-09, ?, i, i, 0.4%

(next part)
Every second line gives: A647 fluor, TSHR ag, A488 fluor, Resorufin fluor, AID923
COC(=O)c1sccc1NC(=O)c1c(C)noc1C
    1.4e-08, -13%, i, i, 3.2%
COc1ccccc1C(=O)Nc1cccc(-c2cn3ccsc3n2)c1
    1.3e-08, 14%, i, i, -2.2%
COc1ccccc1C(=O)Nc1ccc2oc(-c3ccc(F)cc3)nc2c1
    /, 21%, /, /, 2.6%
COc1ccccc1OCc1nnc(SCCN2CCOCC2)o1
    6.1e-08, -2%, i, i, 1.3%
O=C(CSc1nnc(COc2ccccc2Cl)o1)NC(=O)NC1CCCC1
    1.4e-08, 9%, i, i, -0.7%
CN(Cc1ccccc1)C(=O)CSc1nnc(-c2ccco2)n1-c1ccccc1
    1e-09, ?, i, i, -0.8%
N#Cc1cc2sc3nc4ccccc4n3c2cc1C#N
    4.2e-09, -2%, i, i, -0.2%
Nc1nonc1NC(=O)CSc1ncccc1C(=O)O
    4.2e-09, 6%, i, i, 1.5%
Cn1c(=O)c2c(nc(CN3CCCCC3)n2CCCc2ccccc2)n(C)c1=O
    3.1e-09, ?, i, i, -1.3%
CC(C)Oc1cccc(C(=O)Nc2ccc(N3CCN(S(C)(=O)=O)CC3)cc2)c1
    2.8e-09, -6%, i, i, 1.0%

Later entries:
Every second line gives: A647 fluor, TSHR ag, A488 fluor, Resorufin fluor, AID923
O=C(OC(C(=O)NCc1cccs1)c1ccc(F)cc1)c1ccco1 (stereo not drawn)
    7.1e-09, /, i, i, -3.3%
C=CCn1c(COc2ccccc2)nnc1SCC(=O)C(C)(C)C
    1e-09, 9%, i, i, -0.9%
CCCCCC(=O)Nc1ccc2oc(-c3cncc(Br)c3)nc2c1
    1e-09, 6%, i, i, 0.5%
Clc1ccc(-c2nnc3sc(Cc4cccs4)nn23)cc1
    4.9e-08, /, i, i, /
O=C(Nc1cnn(C23CC4CC(CC(C4)C2)C3)c1)c1cc(-c2ccccc2)on1
    1e-09, 4%, i, i, -4.1%
COCCNC(=O)C(c1ccc(F)cc1)N(CC1CCCO1)C(=O)CCC(=O)Nc1ccccn1 (stereo not drawn)
    7e-08, -8%, i, i, -2.3%
COc1ccc(C2CC(=O)c3sc(N)nc3C2)cc1 (stereo not drawn)
    3e-09, /, i, i, /
O=C(CCCc1ccc(-c2ccccc2F)cc1)Nc1ccc(O)cc1
    /, ?, /, /, 1.5%
CN(C(=O)C1CCOC1)c1nnc(-c2ccccn2)s1 (stereo not drawn)
    2.2e-08, -1%, i, i, 2.3%
Cn1cccc1C(=O)N1CCC2(CCCN(c3ncccn3)C2)CC1
    1e-09, 0%, i, i, 1.7%

Continued:
Every second line gives: A647 fluor, TSHR ag, A488 fluor, Resorufin fluor, AID923
CCOC(=O)c1c(CN2CCCCC2)n(C)c2ccc(OC)c(S(=O)(=O)c3ccccc3)c12
    4.2e-08, 12%, i, i, 1.5%
C=Cn1c(N2CCOCC2)nc2c1c(=O)[nH]c(=O)n2C
    1e-09, 2%, i, i, 0.9%
CCCN1CCN(c2nc3c([nH]2)c(=N)ncn3CC(O)CO)CC1 (stereo not drawn)
    2.8e-08, 1%, i, i, -1.7%
O=C(O)C1NCCc2ccccc21 (stereo not drawn)
    1e-09, -45%[inhibitor], i, i, 2.6%
O=C1C[C@@H](O)[C@@H](O)[C@H]2[C@@H]3C(=O)N(C[C@@H]4CCCO4)C(=O)[C@@H]3CC[C@H]12
    /, -5%&-2%[11.4 µM], /, /, 4.2%&-0.4%[11.5 µM]
O=C(NCc1cccs1)C1CCCN1S(=O)(=O)c1ccccc1F (stereo not drawn)
    7.6e-09, 3%, i, i, -0.2%
O=C(c1ccc2c(c1)OCO2)N1CCCN(C(=O)c2ccc3c(c2)OCO3)CC1
    /, 6%[11.4 µM], /, /, -0.6%
O=C(CC1CCCC1)Nc1nc2ccccc2[nH]1
    1e-09, -4%, i, i, -0.7%
CC(C)Cn1cnc2c(N)nc3ccccc3c21
    2e-08, 9%, i, i, -1.1%
O=c1cc(N2CCOCC2)[nH]c(=O)n1C1CCCCC1
    7.7e-09, 3%, i, i, -1.6%

(continued)
Every second line gives: A647 fluor, TSHR ag, A488 fluor, Resorufin fluor, AID923
O=C(NCCc1c[nH]c2ccccc12)C(F)(F)C(F)F
    1e-09, 0%, i, i, -1.7%
Cc1ccc(C(=O)CSc2nc3cccnc3n2C)cc1
    3.1e-09, 12%, i, i, 0.1%
O=C(Nc1ccc(Cl)c(Cl)c1)Nc1cc(C(=O)N2CCOCC2)ccc1N1CCCCC1
    1.8e-08, /, i, i, -1.9%
CCSc1ccc2nnc(-c3cccc(F)c3)n2n1
    1e-09, 5%[11.4 µM], i, i, -1.0%
O=C1N(CN2CCN(c3cccc(Cl)c3)CC2)c2ccccc2C12OCCCO2
    2.5e-08, 3%, i, i, -1.5%
OCc1cn(-c2ccccc2)nc1-c1ccc(-c2nn(-c3ccccc3)cc2CO)cc1
    /, -8%, /, /, -0.8%
c1ccc(OCCSc2nnnn2-c2ccccc2)cc1
    1e-09, ?, i, i, 1.1%
O=C(c1cccc(C(F)(F)F)c1)N1CCCCCC1
    2.6e-08, 4%, i, i, -0.3%
COc1ccc2nc(C)c3cc(C)oc3c2c1
    3.8e-09, 11%, i, i, 1.3%
CCS(=O)(=O)N1CCC(C(=O)NCCC2=CCCCC2)CC1
    2.6e-08, 3%[11.4 µM], i, i, -3.9%

Later entries
Compound | A647 fluor | TSHR ag | A488 fluor | Resorufin fluor | AID923
CCCOc1ccc(C2/C(=C(/O)c3ccccc3)C(=O)C(=O)N2CCCN(C)C)cc1OC (stereo not drawn) | 3.1e-08 | / | i | i | /
CCn1cc(C(=O)O)c(=O)c2cc(S(=O)(=O)N(C)C)ccc21 | 5.6e-09 | -7% | i | i | -0.7%
CCC(C)(C(=O)NC1CCCC1)N(C(=O)CNC(C)=O)c1ccccc1 (stereo not drawn) | 1e-09 | -3% | i | i | 7.4%
O=C(C1CCN(c2ncnc3c2sc2cccc(F)c23)CC1)N1CCOCC1 | / | -7% | / | / | 0.4%
CC(=O)N1CC=CC1(CC(C)C)C(=O)NCCc1c[nH]c2ccccc12 (stereo not drawn) | / | 5% | / | / | -0.9%
Cc1ccc(SCCCCN2C(=O)NC(C)(C)C2=O)cc1 | 8.2e-09 | 2% | i | i | -1.0%
Cn1c(CCCOc2ccc(Cl)cc2Cl)nnc1SCC(=O)Nc1nccs1 | 1e-09 | ? | i | i | -1.4%
CN1CCN(CCC(=O)Nc2ccccc2Cl)CC1 | 2.5e-09 | -13% | i | i | 3.9%

(next part)
Compound | A647 fluor | TSHR ag | A488 fluor | Resorufin fluor | AID923
Cc1ccc2[nH]c3nc(SCCN4CCOCC4)nnc3c2c1 | 3.6e-08 | -14% | i | i | 0.2%
COc1ccc(NC(=O)CCS(=O)(=O)c2ccc3c(c2)CCCN3C(C)=O)cc1 | 3.2e-09 | -9% | i | i | 0.9%
COC(=O)C1C2C=CC3(CN(C(C)C)C(=O)C13)O2 (stereo not drawn) | / | -5% | / | / | 2.5%
CCCOC(=O)C1[C@H]2C(=O)N(Cc3ccco3)C[C@]23C=C[C@H]1O3 (stereo partly drawn) | 1e-09 | / | i | i | /
COc1cccc(NC2=CC(=O)CC(C)(C)C2)c1 | 1e-09 | 1%[11.4 µM] | i | i | 4.6%
O=C(c1ccncc1)N1CCC2(CCCN(c3cccc(-c4ccccc4)c3)C2)CC1 | 2e-08 | 28% | i | i | 2.1%
COc1cc(OC)cc(C(=O)Nc2ccc(-c3nc4ccccc4o3)c(O)c2)c1 | 1e-08 | ? | i | i | 5.0%
COc1cc(NC(=O)C2CCCN2S(=O)(=O)c2cccc3cccnc23)cc(OC)c1OC (stereo not drawn) | / | 3% | / | / | 1.6%

Additional compounds.
Compound | A647 fluor | TSHR ag | A488 fluor | Resorufin fluor | AID923
Cc1cc(CCN2CCC(=O)NC2=O)ccc1OC(C)C | 1e-09 | 2% | i | i | 2.4%
Cc1cccc(-c2nnc(SCC#N)n2Cc2ccccc2)c1 | 2e-09 | 28% | i | i | -1.2%
C1CCC(n2nnnc2CN2CCCC2)CC1 | 1e-09 | 0% | i | i | -0.1%
O=C(Cn1cnc2ccccc2c1=O)c1c[nH]c2ccccc12 | 1e-09 | -8% | i | i | 0.1%
COc1ccc(OC)c(-n2c(N)c(C(=O)NCC3CCCO3)c3nc4ccccc4nc32)c1 (stereo not drawn) | 1e-09 | -6% | i | i | 19%
O=C(c1csnn1)N1CCC2(CCCN(c3ccncc3)C2)CC1 | 2e-09 | -2% | i | i | 4.2%
O=c1c(CCc2ccccc2)nc2cncnc2n1Cc1ccc(F)cc1 | 2.2e-09 | 22% | i | i | 0.0%
Cc1oc(/N=C/c2ccc(Cl)cc2Cl)c(C#N)c1C | / | 12% | / | / | 4.2%

Next compounds.
Compound | A647 fluor | TSHR ag | A488 fluor | Resorufin fluor | AID923
CCOC(=O)N1CCN(c2c(NC3CCN(Cc4ccccc4)CC3)c(=O)c2=O)CC1 | / | 3% | / | / | -2.5%
COC(=O)c1c(O)ccc(Oc2ccccc2)c1C(=O)OC | / | 8% | / | / | 2.3%
Cc1sc2ncnc(OCC(=O)NCC3CCCO3)c2c1C (stereo not drawn) | 3.6e-09 | -1%[11.4 µM] | i | i | 0.8%
Cc1noc(/C=C/N(C)C)c1S(=O)(=O)N1CCCC(C(=O)NC2CCCCC2C)C1 (stereo not drawn) | / | 9% | / | / | 0.0%
CCOC(=O)c1[nH]c2ccc(OCC)cc2c1NC(=O)CN1CCN(c2ccccc2)CC1 | 7.5e-09 | -6% | i | i | -1.8%
CCCCn1ccnc1C(=O)c1cccc(S(=O)(=O)N2c3ccccc3CC2C)c1 (stereo not drawn) | 1e-09 | 11% | i | i | 1.6%

Screening results (PubChem)

This is a subset; the hit share may differ from the screen's.
